Screening results deposited in PubChem by Johns Hopkins Ion Channel Center.
KCNQ2 inh = KCNQ2 channel blockers in CHO-K1 cells – cell-based, FluxOR thallium flux, B-score, primary screen (AID 2156); O88943; 20 min; stronger effect = lower value; only compounds with negative scores are shown here; some inactives read as strong as hits; B-score at 10 µM; 310,000 tested, 1.1% active;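 active means fluorescence ratio B-score at most minus 3 library SDs, with starting brightness B-score within 2 library SDs, cut at about -5.5 in these data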
Target sequence (O88943 whole entry, looked up): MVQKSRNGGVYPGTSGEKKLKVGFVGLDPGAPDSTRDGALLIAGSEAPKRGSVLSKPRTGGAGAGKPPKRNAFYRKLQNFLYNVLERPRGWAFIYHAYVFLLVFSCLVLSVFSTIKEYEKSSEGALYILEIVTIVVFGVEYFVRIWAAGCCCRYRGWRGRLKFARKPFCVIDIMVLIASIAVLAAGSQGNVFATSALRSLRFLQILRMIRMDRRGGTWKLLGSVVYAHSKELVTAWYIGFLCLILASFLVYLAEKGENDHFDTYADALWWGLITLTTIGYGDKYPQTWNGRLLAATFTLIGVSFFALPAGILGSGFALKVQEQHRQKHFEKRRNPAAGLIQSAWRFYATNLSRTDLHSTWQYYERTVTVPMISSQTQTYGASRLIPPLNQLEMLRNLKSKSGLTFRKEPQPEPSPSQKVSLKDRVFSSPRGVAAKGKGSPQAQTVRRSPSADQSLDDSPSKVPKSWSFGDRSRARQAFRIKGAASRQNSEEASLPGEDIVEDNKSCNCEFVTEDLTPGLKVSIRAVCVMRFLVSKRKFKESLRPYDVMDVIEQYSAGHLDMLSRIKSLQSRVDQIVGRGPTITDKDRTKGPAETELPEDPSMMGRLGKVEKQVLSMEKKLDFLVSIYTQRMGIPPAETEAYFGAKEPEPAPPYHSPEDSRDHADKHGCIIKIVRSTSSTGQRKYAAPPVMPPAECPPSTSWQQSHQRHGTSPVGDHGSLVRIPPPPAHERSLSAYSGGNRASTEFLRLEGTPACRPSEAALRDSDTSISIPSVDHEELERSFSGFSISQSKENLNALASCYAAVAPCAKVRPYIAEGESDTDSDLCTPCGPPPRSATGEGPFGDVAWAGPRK
KCNQ2 inh baseline = further read-out of KCNQ2 inh, marked with its call; B-score; measured here: initial fluorescence intensity artifact check;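 brightness before thallium and not channel activity; 0 = typical well and far values either way flag optical interference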
Numbers without * were called inactive; i = inactive.

nr	KCNQ2 inh	KCNQ2 inh baseline	canonical_smiles
1	i	1.59	CCCn1nc(NC(=O)c2ccco2)c2cc3cc(C)ccc3nc21
2	i	0.67	CC(NCCOc1ccccc1F)C(=O)Nc1ccc(S(N)(=O)=O)cc1 (configuration not stated)
3	i	-0.9	O=C(/C=C/Nc1cccc(C(F)(F)F)c1)c1ccco1
4	i	-1.3	CN(C)/C=C/C(=O)c1ccc(F)cc1F
5	i	3.3	CCNC(=O)NC(=O)CSc1nc2ccccc2n1CCOC
6	i	-0.07	CCOCCCNC(=O)c1ccc(Cn2c(=S)[nH]c3c([nH]c4ccc(OC)cc43)c2=O)cc1
7	i	-1.74	O=C(Nn1cnc2ccccc2c1=O)c1cccc(Cl)c1
8	i	0.58	CNC(=O)Nc1cc(NC(=O)NC)cc(C(F)(F)F)c1
9	i	1.73	CCOC(=O)C1CCN(C(=O)CCNC(=O)c2cc(OC)c(OC)c(OC)c2)CC1
10	i	3.61	COC(=O)c1ccc(/C=N/N2CCN(Cc3ccccc3)CC2)cc1
11	i	0.15	CCOc1ccc(C2C(C#N)=C(N)Oc3n[nH]c(C)c32)cc1OC(=O)C1CC1 (configuration not stated)
12	i	-0.88	O=C(NCc1ccc(OC(F)(F)F)cc1)C1CC(c2c(Cl)cccc2Cl)=NO1 (configuration not stated)
13	i	-1	COc1ccc(NC(=O)[C@@H]2CC=C[C@@H]3CCN(C4CCCCC4)C(=O)[C@@H]32)cc1
14	i	-1.72	O=C(O)c1ccccc1-c1ccccc1C(=O)Nc1ccc(F)cc1
15	i	1.79	CCS(=O)(=O)N1CCC(C(=O)Oc2ccccc2OC)CC1
16	i	2.46	NS(=O)(=O)c1ccc(Sc2nc3ccccc3s2)c([N+](=O)[O-])c1
17	i	1.18	COc1ccccc1C(=O)N(CCN(C)C)c1nc2cc(C)cc(C)c2s1
18	i	-0.5	COc1ccc(CN2CCNC(=O)C2CC(=O)N(C)Cc2ccon2)c(F)c1 (configuration not stated)
19	i	0.05	O=C1NC(=O)/C(=C\c2cn(CC(=O)N3CCOCC3)c3ccccc23)S1
20	i	0.63	COc1ccc2nc(SCCOC(=O)Nc3ccc(Cl)cc3)nc(C)c2c1
21	i	-0.15	O=C(CN1CCN(C/C=C/c2ccccc2)CC1)Nc1cc([N+](=O)[O-])ccc1Cl
22	i	0.25	CC(CCN1C(Nc2ccccc2)=NC[C@@H]1Cc1ccccc1)c1ccccc1 (some centres not stated)
23	i	1.15	C=CCOn1c(=O)c(-c2ccc(OC)cc2)[n+]([O-])c2ccccc21
24	i	1.45	Cc1ccc(-c2nnn(CC(=O)N(c3cccc(F)c3)C(C(=O)NC3CCCC3)c3ccncc3)n2)o1 (configuration not stated)
25	i	0.32	COc1ccc(NC(=O)CN2CCN(c3ccccc3Cl)CC2)cc1
26	i	-0.81	Cc1ccc([N+](=O)[O-])c(OCCn2cnc3ccccc32)c1
27	i	-0.12	Cc1ccc(CNS(=O)(=O)c2cc3c4c(c2)CCN4C(=O)CC3)cc1
28	i	-0.83	Cc1[nH]n(-c2ccccc2)c(=O)c1/C=N/n1c(C)nc2ccccc2c1=O
29	i	-0.33	CN(c1ccccc1)S(=O)(=O)c1ccc(Cl)c(C(=O)Nc2nc3ccccc3[nH]2)c1
30	i	-1.63	COc1cccc(CN2CCN(Cc3ccc(OC)c(OC)c3)CC2CCO)c1 (configuration not stated)
31	-5.67*	0.01*	CN(C(=O)COC(=O)C(Cc1ccccc1)NC(=O)c1ccccc1)c1ccccc1 (configuration not stated)
32	i	-0.91	CC(C)NC(=O)/C(C#N)=C\c1ccc(N(C)C)c(Br)c1
33	i	-0.63	Cc1ccc(CNC(=O)COC(=O)CCOc2ccc(C)cc2)cc1
34	i	1.84	Cc1cc(=O)[nH]c(SCC(=O)Nc2ccc(Br)cc2)n1
35	i	-0.13	Cn1c(CSCC(=O)Nc2ccccc2)nnc1SCc1ccccc1
36	i	0.88	Cc1cc(=O)oc2c(CN3CC(C)OC(C)C3)c(O)c(Cl)cc12 (configuration not stated)
37	i	-1.68	COc1ccccc1NC(=O)N1CCC(C(=O)c2ccc(Cl)cc2)CC1
38	i	0.11	CCOC(=O)C1CCN(c2ncnc3c2oc2ccc(Br)cc23)CC1
39	i	-1.31	Cc1ccc(CSc2nnc(Cn3c(=O)sc4ccccc43)n2C)cc1
40	i	2.23	CC(=O)c1sc2nc(SCC(=O)N3CCCCC3)[nH]c(=O)c2c1C
41	i	0.74	CS(=O)(=O)Nc1ccccc1C(=O)Nc1cc(Cl)cc(Cl)c1
42	i	1.31	CCC(=Nc1ccccc1)C1=C(O)CCCC1=O
43	i	-0.53	COc1ccc2c(c1)C(=O)C(=O)N2
44	-10.3*	-0.43*	O=C1CC(c2ccco2)Cc2nc(N3CCc4ccccc4C3)ncc21 (configuration not stated)
45	i	-0.11	Cc1cc(C)n2nc(CCCCc3nc4nc(C)cc(C)n4n3)nc2n1
46	i	-0.32	CCN1CCN(CC(=O)N2c3ccccc3Sc3ccccc32)CC1
47	i	-0.42	COc1ccc(CNc2nnnn2C)c(OC)c1
48	i	-0.47	Cc1nn(Cc2ccccc2)c(C)c1NC(=O)c1cc(-c2ccco2)on1
49	i	0.29	O=C(O)CCCCCNS(=O)(=O)c1ccc2c(c1)OCCO2
50	i	-0.69	Nc1c(C(=O)c2ccc(Cl)cc2)sc2nc3c(cc12)CCC3
51	i	-1.3	Cc1nonc1CN(C)C(=O)CC1C(=O)NCCN1Cc1ccc(F)c(F)c1 (configuration not stated)
52	i	2.2	N#Cc1sc(=O)[nH]c1Cl
53	i	-0.46	O=C(NCC(=O)N(c1ccccc1)C(C(=O)NCC1CCCO1)c1ccccc1)c1ccco1 (configuration not stated)
54	i	0.17	CC(NC(=O)COc1ccc(S(=O)(=O)N2CCCC2)cc1)c1ccccc1 (configuration not stated)
55	i	3.29	Cn1c(C(=O)NCCc2c[nH]c3ccccc23)cc2sccc21
56	i	0.67	CCNC(=O)c1oc2c(c1C)C(=O)CC(C)(C)C2
57	i	0.18	CN(C)CCCN(C(=O)/C=C/c1cccs1)c1nc2c(F)cccc2s1
58	i	-0.45	COc1ccc2ccccc2c1/C=N/NC(=O)c1ccccc1F
59	i	-1.89	CC(=O)N1CCC2(CC1)C/C(=N\NC(=S)Nc1ccccc1F)c1cc(O)ccc1O2
60	i	-2.25	O=C(c1cnc2n(c1=O)CCS2)N(C1CCCCC1)C1CCCCC1

Carrying on:
nr	KCNQ2 inh	KCNQ2 inh baseline	canonical_smiles
61	i	0.28	COC(=O)c1ccccc1NC(=O)C1CC=CCC1C(=O)O (configuration not stated)
62	i	1.39	Cc1csc(SCc2ccccc2C(=O)O)n1
63	i	1	COc1ccc(NC(=O)CN(C)C(=O)c2ccccc2OCC(=O)Nc2cccc(C(F)(F)F)c2)cc1
64	i	1.49	CN(Cc1ccccc1)C(=O)CSc1nc2c(c(C(F)(F)F)n1)CCc1ccccc1-2
65	i	-2.26	C/C(=N\NC(=O)c1c([N+](=O)[O-])c(C)nn1C)c1ccc(NC(=O)C2CCCC2)cc1
66	i	0.02	CC[N+](CC)(CC#Cc1ccccc1)CC#Cc1ccccc1
67	i	-0.04	O=C(CSCc1ccc([N+](=O)[O-])cc1)N/N=C/c1ccncc1
68	i	-0.63	COc1ccc(OC)c(S(=O)(=O)ON2C(=O)c3ccccc3C2=O)c1
69	i	-1.9	C=C(CC1([C@@H](NP(=O)(c2ccccc2)c2ccccc2)[C@H]2C[C@@H]2CCCC)CC1)c1ccccc1
70	i	-0.36	O=S1(=O)N(Cc2ccccc2F)CCCN1Cc1c(F)cccc1Cl
71	i	-2.1	C=CCNC(=S)Nc1ccc(Cl)c(S(=O)(=O)N2CCOCC2)c1
72	i	2	Clc1ccc(CSc2nnc(-c3cccnc3)n2Cc2ccco2)c(Cl)c1
73	i	0.96	CCOC(=O)C1(Cc2cccc(OC)c2)CCCN(C(=O)CNC(C)=O)C1 (configuration not stated)
74	i	0.58	O=C(c1cccc(Cl)c1)N1CCN(c2ncnc3c2cnn3-c2ccccc2)CC1
75	i	0.18	Cc1csc(NC(=O)c2ccc(OCC3CCCO3)cc2)n1 (configuration not stated)

Of the compounds above, these contain a COOH group.
nr	KCNQ2 inh	KCNQ2 inh baseline	canonical_smiles
14	i	-1.72	O=C(O)c1ccccc1-c1ccccc1C(=O)Nc1ccc(F)cc1
49	i	0.29	O=C(O)CCCCCNS(=O)(=O)c1ccc2c(c1)OCCO2
61	i	0.28	COC(=O)c1ccccc1NC(=O)C1CC=CCC1C(=O)O (configuration not stated)
62	i	1.39	Cc1csc(SCc2ccccc2C(=O)O)n1

More results:
nr	KCNQ2 inh	KCNQ2 inh baseline	canonical_smiles
76	i	-0.15	Cc1ccc(-c2nnn(CC(=O)N(Cc3ccccc3)C(C(=O)NC(C)(C)C)c3ccncc3)n2)o1 (configuration not stated)
77	i	2.68	COc1ccc(C2=CC(=O)CC(c3ccccc3)C2)cc1 (configuration not stated)
78	i	8.16	COC(=O)c1cc(NC(=O)c2cccc(Cl)c2)c(=O)oc1/C=C/Nc1cc(C)cc(C)c1
79	i	-0.2	Cc1ccc(C(=O)O/N=C/c2c(N3CCOCC3)n(C)c3ccccc23)cc1
80	i	-1.28	Cn1nccc1C(=O)NC(=S)Nc1sc2c(c1C#N)CCCCC2
81	i	-0.71	CSc1ccccc1C(=O)Nc1ncc(C)s1
82	i	0.58	CCOc1ccc(C2=Nn3cnnc3SC2)cc1
83	i	-1.11	O=C(Nc1ccc(NC(=O)c2sc3ccccc3c2Cl)cc1Cl)c1ccco1
84	i	-1.58	CCn1c(SCC(=O)N(C)C2CCS(=O)(=O)C2)nnc1-c1cccs1 (configuration not stated)
85	i	0.47	Cc1cc(Cl)nc2c(C(C)C)cccc12
86	i	0.07	C/[N+]([O-])=C\CC(=O)c1ccc(-c2ccccc2)cc1
87	i	-0.42	O=[N+]([O-])c1cccnc1N1CCOCC1
88	i	1.8	CCN1CCN(CC(=O)NC2CCCC2)C(=O)C1=O
89	-5.91*	0.01*	Cc1cc(C)c2sc(N(CCN(C)C)C(=O)c3ccc4ccccc4c3)nc2c1
90	i	1.1	CCOC(=O)CC(NC(=O)CCS(=O)(=O)c1ccc2c(c1)n(C)c(=O)c(=O)n2C)c1ccc(C)cc1 (configuration not stated)

Six entries from above, arranged by their value in KCNQ2 inh baseline, ascending.
| No. | Compound | KCNQ2 inh | KCNQ2 inh baseline |
| --- | --- | --- | --- |
| 84 | CCn1c(SCC(=O)N(C)C2CCS(=O)(=O)C2)nnc1-c1cccs1 (configuration not stated) | i | -1.58 |
| 80 | Cn1nccc1C(=O)NC(=S)Nc1sc2c(c1C#N)CCCCC2 | i | -1.28 |
| 87 | O=[N+]([O-])c1cccnc1N1CCOCC1 | i | -0.42 |
| 86 | C/[N+]([O-])=C\CC(=O)c1ccc(-c2ccccc2)cc1 | i | 0.07 |
| 85 | Cc1cc(Cl)nc2c(C(C)C)cccc12 | i | 0.47 |
| 88 | CCN1CCN(CC(=O)NC2CCCC2)C(=O)C1=O | i | 1.8 |

(cont.)
nr	KCNQ2 inh	KCNQ2 inh baseline	canonical_smiles
91	i	-0.71	CCN(CC(=O)Nc1ccc2c(c1)OCCO2)C(=O)COc1cc(C)ccc1Cl
92	i	-1.25	CCOc1ccccc1OCCCC(=O)N1CCN(S(=O)(=O)c2cccc(F)c2)CC1
93	i	1.03	N#Cc1c(N2CCN(C(=O)c3ccccc3)CC2)nc(-c2ccccc2)c2c1CCCC2
94	i	2.59	Cc1ccc(/C=N/NC(=O)CCn2nc(C)cc2C)c(C)c1
95	i	-0.05	Cc1cccc(C(=O)NCC(=O)NCCCSc2ccccc2)c1
96	i	0.1	Cn1c(SCc2c(Cl)cccc2Cl)nc(C(F)(F)F)cc1=O
97	i	-2.54	O=C(CSc1nc(O)c(Cc2ccccc2)c(=O)[nH]1)c1ccccc1
98	i	-0.79	CCN1CCN(CCCNC(=O)CS(=O)(=O)Cc2nc(-c3cccc(OC)c3)oc2C)CC1
99	-6.38*	0.44*	COc1ccccc1C(=O)NCCSCc1ccccc1Cl
100	i	2.01	O=C(CN1CCC2(CC1)OCCO2)c1ccc2cc[nH]c2c1
101	i	-0.74	CCOC(=O)CCc1c(C)c2ccc(OCc3cc([N+](=O)[O-])ccc3OC)cc2oc1=O
102	i	0.09	COC(=O)C(Cc1ccccc1)NC(=O)c1ccc(C)cc1 (configuration not stated)
103	i	0.03	COc1cccc(NC(=O)C2c3cc(OC)c(OC)cc3C(=O)N(C)C2c2cccnc2)c1 (configuration not stated)
104	i	1.04	Cc1cc(C)cc(N2CN=C3SCC(=O)N3C2)c1
105	i	0.18	c1ccc2c(c1)Oc1cccc3cccc-2c13
106	i	2.81	O=C1C2C3C=CC(CC3)C2C(=O)N1c1nccs1 (configuration not stated)
107	i	0.92	COc1cccc(CN(C(=O)Cc2c[nH]c3ccccc23)C(C(=O)NC2CCCCC2)c2ccc(C)o2)c1 (configuration not stated)
108	i	0.08	Cc1nc(SCC(=O)N2c3ccccc3Sc3ccccc32)n[nH]1
109	i	1.72	CSCC[C@H](NC(=O)c1ccc(Cl)c(S(=O)(=O)N2CCCC2)c1)c1nc2ccccc2[nH]1
110	i	0.84	CC(C)(C)NC(=O)c1nc2ccccc2s1
111	i	-1.82	CN1CCC(NC(=O)NC2CCCCC2)CC1
112	i	-1.15	CC(C)c1csc(CN2CCN(Cc3ccc(F)cc3)C(CCO)C2)n1 (configuration not stated)
113	i	-0.15	CCN(C(=O)CSc1nc2ccccc2n1CCc1ccccc1)C1CCS(=O)(=O)C1 (configuration not stated)
114	i	1.63	O=C(CSc1ncn[nH]1)Nc1c(Br)cc([N+](=O)[O-])cc1Br
115	i	-1.05	COc1ccc(N(C)S(=O)(=O)c2cccc(C(=O)N(C)Cc3ccc(C)o3)c2)cc1
116	i	-0.05	Cc1cc(C(=O)N2CCc3ccccc32)c2cc(F)ccc2n1
117	i	0.33	O=C(CSc1nnnn1-c1ccccc1)Nc1ncc2c(n1)CC(c1ccccc1)CC2=O (configuration not stated)

From entry 109 to 111, as listed above:
nr	KCNQ2 inh	KCNQ2 inh baseline	canonical_smiles
109	i	1.72	CSCC[C@H](NC(=O)c1ccc(Cl)c(S(=O)(=O)N2CCCC2)c1)c1nc2ccccc2[nH]1
110	i	0.84	CC(C)(C)NC(=O)c1nc2ccccc2s1
111	i	-1.82	CN1CCC(NC(=O)NC2CCCCC2)CC1

Not all compounds are listed; the hit share may differ from the screen's.
